nsP2pro primary: inhibitors of chikungunya virus nsP2 protease; Potency, µM (doses to about 24.9 µM), for inactives: top-dose activity change, negative = inhibition, usual class: inhibitors; FRET peptide cleavage, nsP2pro, fluorescence 1 h; 31,000 tested, 1.1% active; AID 1964107; active means well fitted inhibition curve with a large enough effect; inconclusive means small, poorly fitted or top-dose-only effect; inactive means no such curve, though single readings can be large or run the other way; further: nearly all actives have a fitted effect of over 60% in size; a reference inhibitor and vehicle were the controls
Target sequence (Q8JUX6 whole entry, looked up): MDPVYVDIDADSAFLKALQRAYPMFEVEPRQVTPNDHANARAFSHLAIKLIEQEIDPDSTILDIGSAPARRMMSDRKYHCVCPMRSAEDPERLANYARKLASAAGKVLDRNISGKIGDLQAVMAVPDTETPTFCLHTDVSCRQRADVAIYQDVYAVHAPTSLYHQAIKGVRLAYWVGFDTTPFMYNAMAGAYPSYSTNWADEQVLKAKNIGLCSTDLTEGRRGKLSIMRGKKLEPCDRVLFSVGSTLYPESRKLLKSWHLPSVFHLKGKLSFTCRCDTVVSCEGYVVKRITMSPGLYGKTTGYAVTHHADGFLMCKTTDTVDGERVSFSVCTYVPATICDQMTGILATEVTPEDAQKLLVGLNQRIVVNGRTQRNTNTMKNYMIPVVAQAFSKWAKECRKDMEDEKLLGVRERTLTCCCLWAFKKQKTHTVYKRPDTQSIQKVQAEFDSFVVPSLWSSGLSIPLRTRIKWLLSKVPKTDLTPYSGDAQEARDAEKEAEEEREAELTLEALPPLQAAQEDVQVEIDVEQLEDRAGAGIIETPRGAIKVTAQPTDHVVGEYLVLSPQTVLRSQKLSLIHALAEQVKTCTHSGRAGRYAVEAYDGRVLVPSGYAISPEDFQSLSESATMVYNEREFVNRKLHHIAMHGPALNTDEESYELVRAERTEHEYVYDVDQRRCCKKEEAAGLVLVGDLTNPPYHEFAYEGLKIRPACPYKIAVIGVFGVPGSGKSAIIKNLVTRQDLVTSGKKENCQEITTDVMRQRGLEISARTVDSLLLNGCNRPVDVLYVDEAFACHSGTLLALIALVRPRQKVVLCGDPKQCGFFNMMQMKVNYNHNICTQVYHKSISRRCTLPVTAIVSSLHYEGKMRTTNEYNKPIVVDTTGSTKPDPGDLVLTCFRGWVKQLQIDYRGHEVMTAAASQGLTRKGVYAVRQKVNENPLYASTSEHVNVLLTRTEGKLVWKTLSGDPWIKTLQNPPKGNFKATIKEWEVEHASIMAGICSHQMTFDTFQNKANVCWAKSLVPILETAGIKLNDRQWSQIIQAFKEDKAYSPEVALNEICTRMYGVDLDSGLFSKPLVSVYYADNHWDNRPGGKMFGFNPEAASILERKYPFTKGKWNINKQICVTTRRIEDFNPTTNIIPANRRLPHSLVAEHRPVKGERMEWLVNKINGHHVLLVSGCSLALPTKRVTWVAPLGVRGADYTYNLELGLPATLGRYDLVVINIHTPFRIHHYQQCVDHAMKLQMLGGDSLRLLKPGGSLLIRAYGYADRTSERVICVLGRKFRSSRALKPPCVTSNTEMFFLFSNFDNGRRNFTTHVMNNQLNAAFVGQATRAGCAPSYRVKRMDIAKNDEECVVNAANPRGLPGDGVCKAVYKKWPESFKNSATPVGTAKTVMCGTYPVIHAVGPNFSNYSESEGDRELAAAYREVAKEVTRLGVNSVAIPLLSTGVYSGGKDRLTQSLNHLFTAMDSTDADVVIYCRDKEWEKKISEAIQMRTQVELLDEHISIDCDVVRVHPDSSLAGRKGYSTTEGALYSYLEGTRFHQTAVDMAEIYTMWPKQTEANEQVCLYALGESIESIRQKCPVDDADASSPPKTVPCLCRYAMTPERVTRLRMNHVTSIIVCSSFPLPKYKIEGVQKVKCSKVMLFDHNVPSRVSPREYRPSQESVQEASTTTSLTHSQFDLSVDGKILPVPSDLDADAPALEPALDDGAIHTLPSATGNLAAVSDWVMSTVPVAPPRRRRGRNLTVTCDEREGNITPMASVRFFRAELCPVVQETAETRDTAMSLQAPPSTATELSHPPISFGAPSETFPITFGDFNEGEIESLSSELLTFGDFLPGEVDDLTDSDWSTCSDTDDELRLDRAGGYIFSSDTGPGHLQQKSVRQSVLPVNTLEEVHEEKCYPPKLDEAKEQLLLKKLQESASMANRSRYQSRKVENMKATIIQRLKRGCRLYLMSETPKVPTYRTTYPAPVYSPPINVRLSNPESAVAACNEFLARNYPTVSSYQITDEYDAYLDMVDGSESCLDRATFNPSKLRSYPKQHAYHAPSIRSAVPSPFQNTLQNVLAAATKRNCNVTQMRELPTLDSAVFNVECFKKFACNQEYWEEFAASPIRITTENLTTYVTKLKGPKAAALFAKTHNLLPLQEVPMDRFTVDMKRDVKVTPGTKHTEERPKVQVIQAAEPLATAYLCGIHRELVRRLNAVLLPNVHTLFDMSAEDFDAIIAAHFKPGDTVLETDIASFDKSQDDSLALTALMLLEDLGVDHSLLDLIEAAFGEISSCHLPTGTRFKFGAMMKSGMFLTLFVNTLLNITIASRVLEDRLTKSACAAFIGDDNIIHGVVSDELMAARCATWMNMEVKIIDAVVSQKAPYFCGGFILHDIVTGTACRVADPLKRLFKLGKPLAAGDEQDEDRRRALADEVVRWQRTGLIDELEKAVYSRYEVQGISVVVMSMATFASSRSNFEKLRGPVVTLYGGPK
Active calls of the source: *; i = inactive; u = inconclusive; & = joins results of further samples; [ ] = dose if it differs, or a comment. On the % scale 0 is the no-effect control and ±100 the full control effect; potency means the concentration at half of the fitted maximal effect.

SMILES	nsP2pro primary
CCN(CC)C(C)CN1c2ccccc2Sc2ccccc21 (stereo unspecified)	1%
NC(=O)c1cccc(-c2cnc3c(O)ccc(C(=O)O)c3c2)c1	i
CCCOc1ccn2c(C(C)=O)cc(-c3ccccc3S(C)(=O)=O)c2c1	-11%
C=C1C(=O)OC2/C=C(\CO)CC/C=C(\C=O)C(O)C(OC(=O)C(C)CC)C12 (stereo unspecified)	-6%
Cc1ccc(C(C)C)c(OCCn2cc(C(=O)c3ccco3)c3ccccc32)c1	-2%
COCc1noc(CCNC(=O)C2CC3(CCNCC3)CN2)n1 (stereo unspecified)	i
O=C([C@H]1O[C@H](CCN2CCC(CO)CC2)CC[C@@H]1O)N1CCN(c2ccccc2)CC1	-5%[39.2 µM]
Cn1nnnc1Sc1ncnc2scc(-c3cccc(C(F)(F)F)c3)c12	i
COc1ccc(Cc2nccc3cc(OC)c(OC)cc23)cc1OC	-17%&14%
CCCCOc1nc(N)c2c(n1)N(Cc1cccc(CN3CCCC3)c1)CC(=O)N2	u
O=C(CN1CC2CC(C1)[C@H]1CCCC(=O)N1C2)N1CCSCC1 (stereo partly specified)	u
COc1ccccc1OC1(C(=O)O)CCN(C(=O)CC2CC2)CC1	i
COC1CCC12CCN(Cc1ccc(F)c(F)c1)CC2 (stereo unspecified)	i
O=C1CCC2(CNC(=O)c3cccnc3)CCCC=C2N1 (stereo unspecified)	i
COc1ccccc1C(=O)Nc1nnc(S(=O)(=O)N2CCCCCC2)s1	-6%
CSc1ncc(C(=O)NCc2cccc(C)c2)c(-c2ccccc2)n1	12%
CC(C)(C)Cc1nnc(NC(=O)CSc2ccccc2)s1	-4%
CCCc1cc2c(N3CCN(C4=NCC(C)(C)S4)CC3)ncnc2s1	3%
CC(C)NC(=O)N1CCC2(CC1)CN(C(=O)Cc1c[nH]c3ccccc13)CCO2	-1%
CC(C)CCNC(=O)C(=O)Nc1c2c(nn1-c1ccccc1)CS(=O)(=O)C2	-25%
N#CC(O[C@@H]1O[C@H](CO)[C@@H](O)[C@H](O)[C@H]1O)c1ccccc1 (stereo partly specified)	-11%
CC(C)Cc1ccc(C(C)C(=O)OCc2ccccn2)cc1 (stereo unspecified)	-1%
Cc1csc2nc(COC(=O)c3ccc(NC(=O)C(C)Oc4ccccc4)cc3)cc(=O)n12 (stereo unspecified)	-17%
O=C(Cc1ccsc1)N1CCC2(CC1)N=C(c1ccccc1)NO2	i
CCn1ccnc1CN(C)C(=O)c1cc(COc2ccccc2F)[nH]n1	i
C[C@]12CC[C@@H]3c4ccc(O[C@@H]5O[C@H](C(=O)O)[C@@H](O)[C@H](O)[C@H]5O)cc4CC[C@H]3[C@@H]1CCC2=O	9%
CN1CC[C@H]2CN(C(=O)c3scc4c3OCCO4)C[C@@]2(C(=O)O)C1	0%
C[C@H](NC(=O)C(C)(C)Oc1ccc(C(F)(F)F)cn1)[C@@H](Cc1ccc(Cl)cc1)c1cccc(C#N)c1	23%
O=C1N(Cc2ccc(F)c(F)c2)CCCC12CCN(c1nc3ccccc3o1)C2 (stereo unspecified)	-6%
CNC(=O)C1(N2CCC[C@H]2C(=O)N(C)CCN(C)C)CCC1	-5%[39.2 µM]
CCC1(C(=O)NCCN2CCOCC2)CCCCC(=O)N1 (stereo unspecified)	i
O=C[C@H](O)[C@@H](O)[C@H](O)CO	-3%
CCOc1ccc(C(=O)c2cn(Cc3cccc(OC)c3)c3cc4c(cc3c2=O)OCO4)cc1	-3%
CCc1ccc(NC(=O)c2ccc3oc(=O)n(Cc4ccccc4)c3c2)cc1	-11%
Cc1nn(C)c(C)c1-c1nc2cc(S(=O)(=O)N3CCCC3)ccc2n1C	i
CC(CNC(=O)CCCn1c(=O)c2cccn2c2cccnc21)c1ccccc1 (stereo unspecified)	-14%
COc1cc(-c2noc(-c3ccc(N4CCCC4)c([N+](=O)[O-])c3)n2)cc(OC)c1OC	-25%
Cc1ccc(C)c(N2CCN(CCCNC(=O)c3ccc4nc(CCc5ccccc5)oc4c3)CC2)c1	-6%
COCCNC(=O)C[C@@H]1O[C@H](CNS(=O)(=O)c2ccc(C)cc2)[C@@H](O)[C@H]1O	2%[39.2 µM]
Cc1ccc(CCNC(=O)c2c[nH]c3ccc(S(=O)(=O)Nc4cccc(C(F)(F)F)c4)cc3c2=O)cc1	-9%
COC(=O)c1ccccc1NC(=O)c1ccccc1OC(F)F	-2%
Cc1cc(C2N=C(Nc3nc4ccccc4o3)NC3=C2C(=O)CCC3)n[nH]1 (stereo unspecified)	i
Cc1cc(C)n(-c2ccc(C(=O)N[C@H]3C[C@H]4C(=O)NCC(=O)N4C3)cc2)n1	3%
CN(C)Cc1ccc(-c2cnn3c(-c4cccc(NC(=O)c5cccc(C(F)(F)F)c5)c4)ccnc23)cc1	209%[activator]
Fc1cc(Nc2nc(-c3ccncc3)nc3ccccc23)ccc1-n1cncn1	i
COc1ccc(OC)c(C2C(C(=O)N3CCCCC3)=C(C)Nc3nc4ccccc4n32)c1 (stereo unspecified)	-4%
CC(C)C(NC(=O)c1ccc2ccccc2n1)C(=O)NC(CC(=O)O)C(=O)COc1c(F)cccc1F (stereo unspecified)	u
Cc1nc2ccc(S(=O)(=O)NC(C(=O)N3CCN(c4cccc(Cl)c4)CC3)C(C)C)cc2s1 (stereo unspecified)	-7%
CNC(=O)C1CCN(c2nc(-c3ccc(Br)cc3)cs2)CC1	i
Cc1nc2ncccn2c1C(=O)N1CCC2(CCCN(C)C2=O)C1 (stereo unspecified)	u
CCN(CC)c1nn2c(=O)c(C(=O)NCc3ccc(F)cc3)cnc2s1	-21%
O=C(Nc1cccc(Nc2nccc(Nc3cccc(C(F)(F)F)c3)n2)c1)C1CC1	16%
COc1ccc2c(CNCCc3ccco3)c(C(=O)O)n(Cc3ccc(C)cc3)c2c1	-7%
Cn1c(=O)c2c(nc(N3CCOCC3)n2Cc2ccccc2F)n(C)c1=O	-14%
Oc1ccc(Nc2nc(-c3ccncc3)nc3ccccc23)cc1F	i
O=C(NCCO)c1ccc(-c2nnc(Nc3ccc(OC(F)(F)Cl)cc3)c3ccccc23)cc1	32%[activator]
Cn1nnnc1SCCCNCc1cc(Cl)ccc1OCc1ccccc1F	0%
O=C(CN1C(=O)COc2ccc(S(=O)(=O)N3CCCCCC3)cc21)NCCc1ccccc1	-6%
O=CCCCC=O	8%
COc1ccc(CNC(=O)CCc2cn(C)c3ccccc23)cc1	-8%

Further compounds
SMILES	nsP2pro primary
c1ccc(C2(c3ccccc3)CCCN(Cc3cscn3)C2)cc1	1%
Fc1ccc(-c2noc(-c3ncn4c3COC(c3ccccc3Cl)C4)n2)cc1 (stereo unspecified)	i
CSc1ncc(CN2CCC(n3nccc3NC(=O)Cc3ccccc3)CC2)cn1	3%
COc1ccccc1CNC(=O)C1CCN(S(=O)(=O)c2ccc3c(ccn3C)c2)CC1	-20%
COCc1nc(CNC(=O)c2sc3cccc(F)c3c2Cl)no1	-7%
CCOC(=O)CSc1nc2sc3c(c2c(=O)n1Cc1ccccc1)CC(C(C)C)OC3 (stereo unspecified)	-14%
COCC(C(=O)OC1CC2CCC(C1)N2C)c1ccccc1 (stereo unspecified)	-1%
CC(=O)OCC(=O)Nc1cc(C#N)cc(NC(=O)COC(C)=O)c1Cl	-4%
CCOc1cccc2sc(=NC(=O)c3ccc(S(=O)(=O)N4CCOCC4)cc3)n(C)c12	-16%
COc1cn(CC(=O)Nc2cc(C)ccc2C)c(CN2CCCCC2)cc1=O	1%
C[C@H]1CC[C@@]2(OC1)O[C@H]1CC3C4CC=C5C[C@H](O)C[C@@H](O[C@@H]6O[C@@H](C)[C@H](O)[C@@H](O)[C@H]6O[C@@H]6O[C@@H](C)[C@H](O)[C@@H](O)[C@H]6O)[C@]5(C)C4CC[C@]3(C)[C@H]1[C@@H]2C (stereo partly specified)	u
Cc1ccc(S(=O)(=O)N2CCCC(CNC(=O)c3cccs3)C2)cc1 (stereo unspecified)	-1%
Cc1cc(C)nc(NC(=S)N2CCN(c3cccc4ccccc34)CC2)c1	-6%
Cc1cc(C)c(NC(=O)c2cc(S(=O)(=O)N3CCCC3)cn2C)c(C)c1	-15%
COc1cccc(C2c3c(ncn(CCN4CCOCC4)c3=N)Oc3ccc4ccccc4c32)c1 (stereo unspecified)	i
COC(=O)N1CCCC1C(=O)N1CCC2(CC1)CC(=O)Nc1ccccc1O2 (stereo unspecified)	-21%
Cc1cccc(N2CCN(C(=O)CCc3c(C)nc4ncnn4c3C)CC2)c1C	-3%
CC1=CC(=O)[C@@H](O)[C@@]2(C)C1C[C@H]1OC(=O)[C@H](O)[C@@]3(O)[C@@H](C)[C@@H](O)[C@H](O)C2[C@@]13C (stereo partly specified)	-20%
COc1ccc(-c2ccc3nc(-c4ccccc4C)oc3c2)c(OC)c1OC	-1%
COc1cccc(-c2ccc(C(=O)N3CCC(NC(=O)c4ccc(C(F)(F)F)cc4)CC3)cc2)c1	i
CC(=O)Nc1ccc(Nc2ncnc3sc4c(c23)CCCC4)cc1	-15%
N#Cc1nc(Nc2ccccc2)nc(NC2CCCCC2)n1	-2%
CCn1ccc2oc(C)c(C(=O)N3CCN(c4cccc(C)c4C)CC3)c2c1=O	3%
Cn1ncc2c(C(=O)NC3CCCCCC3)cc(C(C)(C)C)nc21	0%[39.2 µM]
Cn1cc(CN2C[C@H](C(=O)Nc3ccn(C)n3)C[C@@H]2c2cccc(C(F)(F)F)c2)cn1	i
Cc1nc(-c2cccc(F)c2)sc1CCNC(=O)C(=O)Nc1ccc2c(c1)OCO2	-18%
COc1ccc(CCC(=O)N2CCC3(CC2)CC(C(=O)N2CCOCC2)N(C)C3)cc1 (stereo unspecified)	i
C#C[C@]1(O)CCC2C3CCC4=C(CCC(=O)C4)C3CC[C@@]21C (stereo partly specified)	-6%
Cc1cccc(N(C)C(=O)C(Cc2ccccc2)NS(=O)(=O)c2cccc3nsnc23)c1 (stereo unspecified)	-13%
O=C(CSc1nnc(-c2ccc(O)cc2)o1)c1ccc(Br)cc1	-4%
Cc1nc(N2CCN(C(=O)C(C)Oc3ccccc3)CC2)cc(C(F)(F)F)n1 (stereo unspecified)	3%
Cc1cc(C)n(-c2nc3ccccc3nc2Nc2cc(C(=O)O)ccc2C)n1	-14%
CN(Cc1ccccc1)c1ccc(-c2nc(-c3ccco3)no2)cc1[N+](=O)[O-]	-15%
Cc1cc(C)cc(NC(=O)CSc2nnc(COc3ccccc3Cl)o2)c1	-16%
COc1ccc(Cl)cc1NC(=O)c1cc2c(s1)-c1ccccc1OC2	-19%
NC(=O)c1ccc(O)c2ncccc12	i

Pulled by compound from the list above, three records:
SMILES	nsP2pro primary
COc1ccc(CCC(=O)N2CCC3(CC2)CC(C(=O)N2CCOCC2)N(C)C3)cc1 (stereo unspecified)	i
CSc1ncc(CN2CCC(n3nccc3NC(=O)Cc3ccccc3)CC2)cn1	3%
Cc1ccc(C(C)C)c(OCCn2cc(C(=O)c3ccco3)c3ccccc32)c1	-2%

Already shown: entries from further up.
SMILES	nsP2pro primary
C#C[C@]1(O)CCC2C3CCC4=C(CCC(=O)C4)C3CC[C@@]21C (stereo partly specified)	-6%
Cc1cccc(N(C)C(=O)C(Cc2ccccc2)NS(=O)(=O)c2cccc3nsnc23)c1 (stereo unspecified)	-13%
O=C(CSc1nnc(-c2ccc(O)cc2)o1)c1ccc(Br)cc1	-4%
Cc1nc(N2CCN(C(=O)C(C)Oc3ccccc3)CC2)cc(C(F)(F)F)n1 (stereo unspecified)	3%
Cc1cc(C)n(-c2nc3ccccc3nc2Nc2cc(C(=O)O)ccc2C)n1	-14%
CN(Cc1ccccc1)c1ccc(-c2nc(-c3ccco3)no2)cc1[N+](=O)[O-]	-15%
Cc1cc(C)cc(NC(=O)CSc2nnc(COc3ccccc3Cl)o2)c1	-16%

Continued.
SMILES	nsP2pro primary
Cc1noc2c(NC3CCC(O)CC3)cc(-c3cccnc3)nc12 (stereo unspecified)	3%[39.2 µM]
Cc1ccc(NC(=O)COc2ccc(-c3nnc4n3CCCC4)cc2)cc1C	i
CCN(CC)c1ncccc1CNC(=O)Nc1cccc(OC)c1	-2%
Cc1nn(-c2ccccc2)c2c1C(C(C)C)N(C1CN([S+](=O)([O-])c3cccc(C(F)(F)F)c3)C1)C2=O (stereo unspecified)	-1%
COc1ccc(C(=O)CC(=O)O)c2c1C=CC(C)(C)O2	1%
CN1Cc2ccc(C(=O)Nc3ccc4cn[nH]c4c3)cc2OCC1=O	-5%[39.2 µM]
COCC(=O)N(C1CCOCC1)C1CCN(C(=O)Cc2ccc(Cl)cc2)CC1	5%
CCOC(=O)c1ccoc1-c1ccc2ncnc(N(C)Cc3sccc3C)c2c1	i
CC1(C)SC2C(NC(=O)[C@H](NC(=O)N3CCNC3=O)c3ccccc3)C(=O)N2C1C(=O)O (stereo partly specified)	-17%
CC(C(=O)N1CCc2onc(-c3ccc(F)c(F)c3)c2C1)n1ccnc1 (stereo unspecified)	i
O=C([C@@H]1C[C@H](F)CN1S(=O)(=O)Cc1ccccc1Cl)N1CCCCC1	-7%
O=C(/C=C/c1ccc(O)c(O)c1)O[C@@H]1C[C@](O)(C(=O)O)C[C@@H](O)[C@H]1O	-23%
Cc1nonc1Cc1nc(C2CCOCC2)nn1CC1COCCO1 (stereo unspecified)	i
CCN(CC)C(=O)c1ccccc1NC(=O)c1cccc(S(=O)(=O)N2CCC(C)CC2)c1	-13%

The list is partial; rates above refer to the full screens.
